Assay outcomes deposited in PubChem by National Center for Advancing Translational Sciences (NCATS).
Cruzain inh noDet: inhibitors of Trypanosoma cruzi cruzain without detergent | P25779 | purified cruzain, Z-FR-AMC fluorescence, no detergent | Potency, µM, for inactives: max response, negative = inhibition, most hits filed as inhibitors | 2.3% of 200,000 active | AID 1476; active = well fitted curve in the direction sought with a large enough effect; inconclusive = small, poorly fitted or top-dose-only effect, or another doubt; inactive = no such curve, though single readings can be large; an effect the other way counts as inactive or inconclusive;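 note: plate controls were enzyme without inhibitor for no effect and buffer without enzyme for full effect; nearly all actives have a fitted effect of over 40% in size; top concentration of the series not given in the record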
Target sequence (P25779 123-467 limits assumed): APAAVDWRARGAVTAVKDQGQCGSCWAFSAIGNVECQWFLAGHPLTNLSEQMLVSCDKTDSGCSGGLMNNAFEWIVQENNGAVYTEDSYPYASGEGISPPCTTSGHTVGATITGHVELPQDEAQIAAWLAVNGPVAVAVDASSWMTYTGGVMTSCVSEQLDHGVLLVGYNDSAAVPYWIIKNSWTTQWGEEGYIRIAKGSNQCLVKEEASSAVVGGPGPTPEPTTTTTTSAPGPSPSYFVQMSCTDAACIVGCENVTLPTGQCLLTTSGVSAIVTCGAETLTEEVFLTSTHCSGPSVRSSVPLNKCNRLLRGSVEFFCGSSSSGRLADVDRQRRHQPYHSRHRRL
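Purified cruzain at 1.5 nM, pre-incubated 15 min with compound at room temperature in 100 mM sodium acetate pH 5.5, 5 mM DTT, 0.00005% Triton X-100. Reaction started with 2 uM Z-FR-AMC; AMC fluorescence increase over 60 s gives rate.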
LASV entry inh: Lassa virus entry inhibition; Lassa virus pseudotype entry inhibition, cell reporter; control for the full effect not named in the record; Potency, µM (top dose mostly 37.9 µM), for the others: at the highest dose activity change, negative = inhibition, hits mostly inhibitors; 1.2% of 300,000 active; active means well fitted inhibition curve with a large enough effect; inconclusive means small, poorly fitted or top-dose-only effect, or effect the other way; inactive means flat fitted curve, though single readings scatter; tested in HEK293 cells; note: % is set by controls: 0 for no effect and ±100 for the full control effect; nearly all actives have a fitted effect of over 50% in size; luciferase read-out
StopGo reporter: lowers the luciferase signal of an FMDV 2A StopGo reporter; human cells with a luciferase reporter of 2A StopGo recoding; control for the full effect not named in the record; Potency, µM (highest dose often 57.9 µM), for inactives: at the top dose signal change, negative = less light; 1.2% of 410,000 active; AID 1159524; active = well fitted falling curve with a large enough effect; inconclusive = small, poorly fitted or top-dose-only effect; inactive = no such curve, though single readings can be large or run the other way; tested in HEK293T cells; note: % is set by controls: 0 for no effect and ±100 for the full control effect; nearly all actives have a fitted effect of over 45% in size; luciferase light after 4 h
MARV entry inh: inhibitors of Marburg virus binding or cell entry; Marburg virus pseudotyped entry inhibition, cell reporter; control for the full effect not named in the record; about a third of the inactives were read at about 46 µM; Potency, µM (series often up to 37.8 µM), inactives show at the top dose activity change, negative = inhibition, most hits filed as inhibitors; 1.8% of 300,000 active; active = well fitted inhibition curve with a large enough effect; inconclusive = small, poorly fitted or top-dose-only effect, or effect the other way; inactive = flat fitted curve, though single readings scatter; tested in HEK293 cells; about a fifth of its hits are not listed in these tables; note: % is set by controls: 0 for no effect and ±100 for the full control effect; luciferase read-out
Cruzain Triton: inhibitors of Trypanosoma cruzi cruzain with detergent | purified cruzain, Z-FR-AMC fluorescence, 0.01% Triton | P25779 | Potency, µM, inactives show max response, negative = inhibition, most hits filed as inhibitors | 0.43% of 200,000 active; active = well fitted curve in the direction sought with a large enough effect; inconclusive = small, poorly fitted or top-dose-only effect, or another doubt; inactive = no such curve, though single readings can be large; an effect the other way counts as inactive or inconclusive;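 note: plate controls were neutral wells for no effect and buffer without enzyme for full effect; nearly all actives have a fitted effect of over 40% in size; top concentration of the series not given in the record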
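Enzyme 1.5 nM, Z-FR-AMC 2 uM, NaOAc 100 mM pH 5.5, DTT 5 mM, Triton X-100 0.01%; 15 min RT compound preincubation; kinetic ex360/em450, 60 s delta.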
SARS PLpro yeast: inhibitors of SARS-CoV papain-like protease in yeast; Potency, µM (doses to about 32.9 µM), for the others: at the highest dose activity, positive = growth rescue; S. cerevisiae expressing SARS-CoV PLpro, growth rescue; control for the full effect not named in the record; 0.19% of 330,000 active; note: 0% is about no effect; nearly all actives have a fitted effect of over 55% in size; growth read by luminescence after 48 h
RE007 growth inh: less growth of the S. pombe RE007 Vpr strain. 0.21% of 360,000 active. AID 651644. S. pombe RE007 Vpr strain, BacTiter-Glo ATP luminescence, 24 h; control for the full effect not named in the record. Potency, µM (top dose mostly 92.2 µM), for the others: at the highest dose activity change, negative = less growth; active = well fitted falling curve with a large enough effect; inconclusive = small, poorly fitted or top-dose-only effect; inactive = no such curve, though single readings can be large or run the other way;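 note: % is set by controls: 0 for no effect and ±100 for the full control effect; nearly all actives have a fitted effect of over 50% in size; the assay follows cell death caused by Vpr and the record does not say whether a fall means rescue or toxicity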
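Fission yeast RE007 carrying one integrated HIV-1 vpr copy, seeded at OD 0.01 in PMG+AL medium with 23 nL pinned compound. Grown 24 h at 30 degrees; viability read by BacTiter-Glo luminescence after 5 min.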
NS1 function inh: blocks influenza NS1 protein function | S. cerevisiae slowed by influenza A NS1, growth recovery by OD600 | Potency, µM (doses to about 46.1 µM), for inactives: top-dose activity, positive = more growth | 0.4% of 270,000 active; note: actives are rising curves; nearly all actives have a fitted effect of over 50% in size
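Read-out: OD600 growth recovery of NS1-expressing budding yeast. Cells grown overnight at 30C in -URA glucose medium, washed, resuspended and diluted 1:100 in 2% galactose assay medium, pH 6.0. Same strain lacking NS1 served as positive control.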
* hit, by the source's call; ? = inconclusive; . = not tested or not shown; & = joins results of further samples; ! = not active in a repeat; [ ] = another dose, or the depositor's remark. Unless noted, calls come from the whole dose curve; as a rule, active means well fitted rising curve with a large enough effect; inconclusive means small, poorly fitted or top-dose-only effect; inactive means no such curve, though single readings can be large or run the other way. Potency is the fitted concentration of half-maximal effect.

SMILES | Cruzain inh noDet | LASV entry inh | StopGo reporter | MARV entry inh | Cruzain Triton | SARS PLpro yeast | RE007 growth inh | NS1 function inh
CCN(CC)c1ccc(CNCCc2ccc(F)cc2)cc1 | . | ? | ? | ? | . | 1% | 4% | 1%
Cc1ccc2occ(-c3nn[nH]n3)c(=O)c2c1 | 27% | 0% | -23% | 0% | -2.8% | -21% | -3% | -17%
N#Cc1nc(Cc2cccc3ccccc23)oc1N1CCCCC1 | -7% | -21% | -10% | ? | 0.7% | -2% | -14% | -3%
O=C(O)Cc1nc2nc3c(c(=O)n2[nH]1)CCCC3 | -4% | 5% | -13% | 8% | 6.7% | 0% | -20% | 3%
COc1ccc(C(=O)C2CCCN(S(=O)(=O)C(C)C)C2)c(C)c1 (stereo not drawn) | . | . | -7% | . | . | -1% | 15% | -3%
COc1cc2c(cc1OC)CN(C(=O)Nc1ccccc1Cl)CC2 | . | -14% | -14% | -9% | . | -1% | 5% | -54%
CN1CCN(c2ccccc2NC(=S)NC(=O)c2cc3ccccc3o2)CC1 | . | 12%[46.1 µM] | 11% | 2%[46.1 µM] | . | 4% | -10% | 15%
Cc1n[nH]c(C)c1S(=O)(=O)N1CCC(C(=O)N2CCn3c2nc2ccccc23)CC1 | 10% | -20% | . | -7% | -6.0% | -1% | 13% | 2%
O=C(/C(=N\Nc1ccc(Br)cc1)Sc1nnnn1-c1ccccc1)c1ccccc1 | ? | 0% | -4% | -7% | -8.0% | 13% | 0% | 9%
O=C(NCCN1CCOCC1)/C(=C/c1ccco1)NC(=O)c1ccccc1 | . | 18% | 0% | -9% | . | 20% | 2% | 2%
CCN(CC)CCOC(=O)c1ccc(NC(=O)Cn2ncc3c([nH]c4ccc(C)cc43)c2=O)cc1 | -3% | ? | -22% | . | -4.1% | . | . | .
COc1cc(C(=O)NC(C)c2cccc3ccccc23)cc(OC)c1OC (stereo not drawn) | . | . | -14% | . | . | -1% | -2% | -6%
CN(C)c1cccc(C(=O)Nc2nc3ccc(S(=O)(=O)N4CCCC4)cc3s2)c1 | -24% | ? | ? | . | -4.5% | . | . | .
Cc1ccc(S(=O)(=O)N(Cc2ccccc2)c2ccccc2C(=O)Nc2ccccc2C(=O)NCc2ccco2)cc1 | -27% | -3% | 13% | 16µM* | -3.1% | 17% | -2% | 7.9µM*
C=CCN(C(=O)CNC(=O)c1ccco1)C(C(=O)NC1CCCC1)c1ccc(OC)cc1 (stereo not drawn) | . | 7% | 21% | -7%[46.1 µM] | . | 1% | -5% | 2%
Cc1ccc(C(=O)NC2CCc3ccccc3C2=O)cc1 (stereo not drawn) | . | ? | 35%[activator] | ? | . | -1% | -7% | .
Cc1nn(C)c(Cl)c1CN1CCC(CO)(CCOc2ccccc2)CC1 | . | 11% | ? | ? | . | 0% | -7% | -1%
COc1cccc(-c2ccc3c(N)c(C(=O)c4ccc(F)cc4)sc3n2)c1 | ? | -25%[46.1 µM] | 12% | -18%[46.1 µM] | -8.7% | . | . | .
O=c1[nH]c(N2CCc3ccccc3C2)nc2c1CCC2 | -2% | 8% | 5% | 4% | 1.0% | -3% | -13%[3.69 µM] | -9%
CC(SC1=NCCN1S(=O)(=O)c1ccccc1)c1ccccc1 (stereo not drawn) | . | . | -9% | . | . | -3% | 3% | -6%
CCOC(=O)c1cnc2c(ccc3ccccc32)c1Nc1ccc(Cl)cc1 | -6% | 7%[46.1 µM] | 1% | . | -2.7% | . | . | .
C/C(=N\N=C1\NC(=O)C(CC(=O)Nc2ccc(C)c(Cl)c2)S1)C(C)C (stereo not drawn) | . | ? | -20% | -26%[46.1 µM] | . | -8% | 13% | .
S=C(Nc1ccccc1)N1CCN(C/C=C/c2ccccc2)CC1 | . | ? | -21% | ? | . | 0% | -1% | 0%
CCOC(=O)N1CCN(Cc2nc3cc(NC(=O)CC(C)C)ccc3n2C(C)C)CC1 | 8% | -25%[46.1 µM] | -17% | ? | 0.7% | . | . | .
O=C(c1ccc(Cl)c(S(=O)(=O)Nc2ccc(F)cc2)c1)N1CCN(c2ccccn2)CC1 | -7% | ? | -5% | 15µM* | -3.4% | 1% | -11% | -8%

Of the compounds above, 2 have two or more sulfur atoms.
SMILES | Cruzain inh noDet | LASV entry inh | StopGo reporter | MARV entry inh | Cruzain Triton | SARS PLpro yeast | RE007 growth inh | NS1 function inh
CN(C)c1cccc(C(=O)Nc2nc3ccc(S(=O)(=O)N4CCCC4)cc3s2)c1 | -24% | ? | ? | . | -4.5% | . | . | .
CC(SC1=NCCN1S(=O)(=O)c1ccccc1)c1ccccc1 (stereo not drawn) | . | . | -9% | . | . | -3% | 3% | -6%

(next part)
SMILES | Cruzain inh noDet | LASV entry inh | StopGo reporter | MARV entry inh | Cruzain Triton | SARS PLpro yeast | RE007 growth inh | NS1 function inh
Cc1ccc([N+](=O)[O-])cc1S(=O)(=O)Nc1ccc(C(=O)NCc2ccccn2)cc1 | . | 20% | 18% | 13% | . | 6% | -9% | .
O=C(O)/C=C1\NC(=O)c2ccccc21 | -2% | 9% | -14% | -12% | 2.2% | ? | -9% | -18%
CCOc1ncccc1C(=O)N1CCN(C(c2ccccc2)c2ccccc2)CC1 | . | ? | ? | ? | . | 16% | 20% | .
Cc1cccc(NC(=O)[C@@H](NC(=O)[C@@H]2Cc3ccccc3CN2)C(C)C)c1 | . | . | 10% | . | . | 16% | -11% | 7%
CC1CN/C(=C\C(=O)c2ccc(Cl)cc2)C(=O)N1 (stereo not drawn) | -6% | ? | -56% | ? | -4.5% | -10% | 5% | -10%
CC(=O)Nc1ccc(NC(=O)/C(Cl)=C/c2ccccc2)cc1 | 3% | 1% | 36%[activator] | ? | -1.4% | -7% | 2% | -59%
CC(=O)c1cccc(NC(=O)C2CCN(S(=O)(=O)c3cccs3)CC2)c1 | -16% | 3% | -17% | -3% | -0.4% | 1% | -12% | -2%
O=C(c1ccc(N2CCNCC2)cc1)c1cccnc1 | -4% | -19% | ? | 6% | -3.7% | . | -12% | -13%
CCCCN1C(=O)/C(=C(/C#N)C(N)=O)c2ccccc21 | 4% | 20% | -9% | -2% | -1.1% | -12% | -8% | 0%
O=C(CC(C(=O)c1ccccc1)c1ccccc1)c1ccccc1 (stereo not drawn) | . | ? | 8% | ? | . | . | 2% | .
O=C(CSc1nc2c(c(=O)[nH]1)CCC2)Nc1cccc(F)c1 | . | -3%[46.1 µM] | 3% | -3%[46.1 µM] | . | 0% | -5% | 0%
COc1ccc(C(=O)NC2CCCCCC2)cc1S(=O)(=O)N1CCOCC1 | . | 10% | 23% | 11% | . | 3% | -19% | 9%
CO/N=C/c1ccc(N2CCN(C(=O)c3ccc(C)cc3)CC2)c([N+](=O)[O-])c1 | 18% | -21% | ? | -7% | -6.6% | -7% | -7% | -65%
Cc1ccc(C)c(NC(=O)CSc2nccn2-c2cccc(C)c2C)c1 | -9% | ? | -25% | . | -6.1% | . | . | .
S=C(N/N=C/c1ccccc1)N1CCOCC1 | 0% | ? | 38%[activator] | ? | -6.5% | ? | . | -13%
COc1ccc(CNC(=O)c2oc3c(c2C)-c2nn(Cc4ccc(Cl)cc4)cc2CC3)cc1 | -5% | 3%[46.1 µM] | ? | . | -3.3% | . | . | .
O=C(CC(c1ccccc1)c1ccccc1O)NCCN1CCOCC1 (stereo not drawn) | -3% | -8% | -21% | -2% | 0.4% | 2% | 0% | -2%
COc1ccc(OC)c(NC(=O)CN2C(=O)CSc3ccc(S(=O)(=O)N4CCCC4)cc32)c1 | . | . | -14% | . | . | 4% | -9% | -4%
Cc1ccc(C(=O)C[n+]2cccc(C(N)=O)c2)cc1 | . | 16% | -7% | 1%[46.1 µM] | . | 0% | 28% | 5%
CNC(=O)CSc1cnc2ccccc2n1 | . | 3% | 3% | 3%[46.1 µM] | . | -8% | -1% | .
CCC(C)(C)NC(=O)CCCSc1nc2ccccc2[nH]1 | . | . | 9% | . | . | 0% | -2% | -4%
Cc1ccc(CN2CCN(C/C=C/c3ccc(F)cc3)CC2CCO)o1 (stereo not drawn) | . | . | -19% | . | . | -2% | -14% | 1%
CCOC(=O)c1ccc(S(=O)(=O)NCC(C)(C)N2CCOCC2)cc1 | . | . | -7% | . | . | -2% | -2% | 2%
Cc1cc(C)cc(N2C(=O)CC(Sc3ccccc3C(=O)O)C2=O)c1 (stereo not drawn) | . | -10% | -3% | ? | . | -8% | 11µM* | -79%
Cc1ccnc(SCc2cc(=O)c(OC(=O)c3cc([N+](=O)[O-])ccc3Cl)co2)n1 | 6% | 6% | -15% | -22% | 0.8% | 5% | -26% | 22%
Cc1ccc2nc(NC(=O)c3ccc(S(=O)(=O)N4CCCc5ccccc54)cc3)sc2c1 | 6.3µM*! | ? | ? | ? | 1.4%&2.6% | 5% | 8% | 17%
O=C(CSc1nccc(=O)[nH]1)Nc1ccc(S(=O)(=O)N2CCOCC2)cc1 | 21% | -27% | . | 0% | -4.3% | 9% | 6% | 0%
CCC(C(=O)Nc1cc(-c2cn3cccnc3n2)ccc1C)c1ccccc1 (stereo not drawn) | ? | ? | -8% | . | -0.9% | . | . | .
O=C(NCc1ccccc1OC(F)(F)F)C1CCC(=O)N(Cc2cccc(F)c2)C1 (stereo not drawn) | . | 8% | -18% | 13% | . | -1% | -11% | 11%
OCCC1CN(Cc2ccc3nsnc3c2)CCN1C1CCCCC1 (stereo not drawn) | . | -20%[46.1 µM] | -1% | ? | . | -2% | -19% | -5%

Two entries drawn at random from the list so far, as already listed:
SMILES | Cruzain inh noDet | LASV entry inh | StopGo reporter | MARV entry inh | Cruzain Triton | SARS PLpro yeast | RE007 growth inh | NS1 function inh
COc1ccc(C(=O)NC2CCCCCC2)cc1S(=O)(=O)N1CCOCC1 | . | 10% | 23% | 11% | . | 3% | -19% | 9%
Cc1cc(C)cc(N2C(=O)CC(Sc3ccccc3C(=O)O)C2=O)c1 (stereo not drawn) | . | -10% | -3% | ? | . | -8% | 11µM* | -79%
